Bioassay records: PubChem BioAssay, Broad Institute
Vaccinia inh – blocks a specific stage of Vaccinia orthopoxvirus infection, primary screen, cell-based, single point. Vaccinia-infected cells, mCherry/Venus stage reporter fluorescence; hits give low values; some inactives read as strong as hits. activity change (mCherry), % (test concentration not listed). 89,000 compounds, 0.01% hits;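 active means mCherry past -33% and 40 or more points under the early reporter, replicates agreeing; inconclusive means past -33% without that gap or agreement; tested in A549 cells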;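 further: scaled between vehicle wells and reference inhibitor wells; 23 nL library stock went into each well; one replicate is shown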
Vaccinia inh Venus – recorded beside Vaccinia inh, whose call it bears; activity change (Venus), %; measured here: Venus reporter, other viral stage;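 negative = less Venus signal; first of two replicates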
* marks the source's active call; other numbers are inactive results; ? = inconclusive; nt = not tested or not shown. An excerpt; the hit share may differ from the screen's.

SMILES | Vaccinia inh | Vaccinia inh Venus
C[C@H](CO)N1C[C@H](C)[C@H](CN(C)Cc2ccc3c(c2)OCO3)Oc2ccc(NC(=O)Nc3cccc4ccccc34)cc2CC1=O | -17 | -11
CO[C@@H]1CN(C)C(=O)c2cc(NC(=O)c3ccccc3F)ccc2OC[C@@H](C)N(C)C[C@@H]1C | 5 | 2
N#C[C@@H]1[C@H](c2ccc(C#Cc3ccccc3F)cc2)[C@H](CO)N1C(=O)C1CCOCC1 | ? | nt
COc1cccc(NC(=O)N[C@@H]2C=C[C@@H](CC(=O)N3CCN(C)CC3)O[C@H]2CO)c1 | 19 | 12
C[C@@H]1CN([C@@H](C)CO)C(=O)Cc2cc(NC(=O)c3ccncc3)ccc2O[C@H]1CN(C)Cc1ccncc1 | -5 | 4
C[C@@H]1CN([C@@H](C)CO)C(=O)c2cc(C#Cc3cccc(F)c3)cnc2O[C@H]1CN(C)C(=O)C1CCC1 | ? | nt
COc1ccc(-c2ccc3c(c2)[C@@H]2[C@@H](CCN2C(=O)NC2CCCCC2)[C@H](CO)N3C)cc1 | ? | nt
C[C@@H]1CN([C@@H](C)CO)C(=O)c2cc(NC(=O)c3ccncc3)ccc2O[C@@H]1CN(C)S(=O)(=O)c1ccc(Cl)cc1 | 0 | 0
C[C@H](CO)N1C[C@H](C)[C@H](CN(C)Cc2ccncc2)Oc2ccc(NC(=O)CCCCCC(=O)Nc3ccccc3N)cc2C1=O | -5 | 6
Cc1noc(C)c1NC(=O)Nc1cccc2c1O[C@@H](CN(C)Cc1ccc3c(c1)OCO3)[C@@H](C)CN([C@@H](C)CO)C2=O | 10 | -2
CO[C@@H]1CN(C)C(=O)c2ccc(NS(=O)(=O)c3cn(C)cn3)cc2OC[C@@H](C)N(C)C[C@H]1C | 16 | 8
CN(C)CC(=O)N1CCCCN2[C@H](C1)[C@H](c1ccc(-c3cccnc3)cc1)[C@@H]2CO | 15 | 6
C/C=C/c1ccccc1[C@H]1[C@H](C#N)N(C(=O)CN2CCOCC2)[C@H]1CO | 7 | 14
Cc1ccc(S(=O)(=O)N(C)C[C@@H]2OCCCC[C@H](C)Oc3ccc(NC(=O)CCC(F)(F)F)cc3C(=O)N([C@@H](C)CO)C[C@@H]2C)cc1 | ? | nt
CCO[C@@H]1OC(C(=O)O)=C[C@H](c2csc3ccccc23)[C@H]1CCCO | 25 | 15
CCC(=O)N(C)C[C@@H]1Oc2cc(C#CC3CCCCC3)ccc2S(=O)(=O)N([C@@H](C)CO)C[C@H]1C | -29 | -30
OC[C@@H]1[C@@H](c2ccc(Br)cc2)[C@H]2CN(Cc3ccccn3)CCCCN12 | 21 | 18
Cc1noc(C)c1NC(=O)N(C)C[C@@H]1Oc2ncc(C#CCN(C)C)cc2C(=O)N([C@@H](C)CO)C[C@H]1C | 16 | 11
C[C@@H]1CN([C@@H](C)CO)C(=O)c2cc(NC(=O)Cc3ccccc3)ccc2O[C@@H](C)CCCCO[C@H]1CN(C)CC1CCCCC1 | ? | nt
COc1ccc(NC(=O)N[C@@H]2CC[C@H](CCNC(=O)CN3CCOCC3)O[C@@H]2CO)cc1 | 7 | 13
O=C(C[C@H]1CC[C@@H](NC(=O)c2cccnc2)[C@@H](CO)O1)NCc1ccncn1 | 1 | 4
C[C@H](CO)N1C[C@H](C)[C@H](CN(C)Cc2ccc(Cl)c(Cl)c2)Oc2ccc(NC(=O)C3CCCCC3)cc2C1=O | -32 | -27
CCCN1[C@@H]2c3ccc(-c4ccc(F)cc4)c(=O)n3C[C@H]1[C@H](CO)[C@H]2C(=O)NCCOC | -12 | -4
C[C@@H]1CN([C@@H](C)CO)C(=O)c2cc(NC(=O)Nc3ccc(F)cc3)ccc2O[C@H]1CN(C)Cc1ccc(C(=O)O)cc1 | 12 | 6
C[C@H](O)C#Cc1cnc2c(c1)C(=O)N([C@H](C)CO)C[C@H](C)[C@H](CN(C)C(=O)Nc1ccc(F)cc1)O2 | 18 | 20
Next part.
SMILES | Vaccinia inh | Vaccinia inh Venus
C[C@H]1CCCCO[C@H](CN(C)C(=O)Nc2ccccc2)[C@@H](C)CN([C@@H](C)CO)C(=O)c2cc(NC(=O)C3CCCCC3)ccc2O1 | -31 | -18
O=C(C[C@H]1CC[C@H]2[C@@H](COC[C@H](O)CN2C(=O)Nc2ccc3c(c2)OCO3)O1)N1CCN(c2ccccc2)CC1 | -31 | -22
C[C@H]1CN([C@@H](C)CO)C(=O)c2cc(NC(=O)Cn3cnnn3)ccc2O[C@H]1CN(C)C(=O)Nc1ccc(F)cc1 | 24 | 6
C[C@@H]1CN([C@H](C)CO)C(=O)c2cccc(NC(=O)Nc3ccc4c(c3)OCO4)c2O[C@H]1CN(C)Cc1ccc(Cl)c(Cl)c1 | -23 | -14
O=C(Cc1ccncc1)N1CCCCN2[C@H](CO)[C@@H](c3ccc(C#Cc4ccccc4F)cc3)[C@@H]2C1 | -5 | 6
COc1ccccc1CN(C)C[C@H]1OCc2ccccc2-c2c(n(C)c3ccccc23)C(=O)N([C@@H](C)CO)C[C@@H]1C | ? | nt
C[C@H](CO)N1C[C@H](C)[C@@H](CN(C)C(=O)Nc2ccccc2)OCCCC[C@H](C)Oc2ccc(NC(=O)Nc3cccc4ccccc34)cc2C1=O | 46 | 22
C[C@H]1CN([C@@H](C)CO)S(=O)(=O)c2ccc(C#CC3CCCC3)cc2O[C@H]1CN(C)C(=O)Nc1cc(F)ccc1F | ? | nt
COCC(=O)Nc1ccc2c(c1)[C@H]1C[C@@H](CC(=O)NCC(F)(F)F)O[C@@H](CO)[C@H]1O2 | 3 | -3
C[C@@H]1CN([C@H](C)CO)S(=O)(=O)c2ccc(C#CC3CCCCC3)cc2O[C@@H]1CN(C)C(=O)Cc1ccncc1 | -31 | -19
CO[C@H]1CN(C)C(=O)c2cc(NC(=O)c3nc4ccccc4s3)ccc2OC[C@H](C)N(Cc2ccncc2)C[C@H]1C | -25 | -22
C[C@@H]1CN([C@H](C)CO)C(=O)c2cccc(NC(=O)Nc3ccc(C(F)(F)F)cc3)c2O[C@H]1CN(C)Cc1ccc(C(F)(F)F)cc1 | -17 | -13
C[C@@H]1CN([C@H](C)CO)C(=O)c2cc(NC(=O)Cn3cnnn3)ccc2O[C@H]1CN(C)CC1CCCCC1 | 3 | 8
C[C@H](CO)N1C[C@H](C)[C@@H](CN(C)S(=O)(=O)c2cccs2)OCCCC[C@H](C)Oc2ccc(NC(=O)c3ccncc3)cc2C1=O | 0 | -4
O=C(NC1CCC1)[C@@H]1[C@@H](CO)[C@@H]2Cn3c(ccc(-c4ccccc4)c3=O)[C@@H]2N1CC1CC1 | -2 | -5
O=C(C[C@@H]1C[C@H]2c3cc(NC(=O)Cc4ccncc4)ccc3O[C@H]2[C@@H](CO)O1)NCc1ccccn1 | -2 | -9
C[C@H](CO)N1C[C@H](C)[C@@H](CN(C)C(=O)Nc2ccc3c(c2)OCO3)Oc2ccc(NC(=O)Cn3cnnn3)cc2CC1=O | 23 | 34
CCCC#Cc1ccc([C@H]2[C@@H](C#N)N(C(=O)C3CCCCC3)[C@H]2CO)cc1 | ? | nt
O=C(O)C[C@@H]1C[C@@H]2c3cc(NC(=O)c4ccc5c(c4)OCO5)ccc3O[C@@H]2[C@@H](CO)O1 | 6 | 6
C[C@H](CO)N1C[C@H](C)[C@H](CN(C)C(=O)C2CCCCC2)Oc2ncc(/C=C/c3ccccc3)cc2C1=O | -14 | -11
C[C@@H]1CN([C@@H](C)CO)C(=O)Cc2cc(NC(=O)Cc3cn(C)c4ccccc34)ccc2O[C@H]1CN(C)S(=O)(=O)c1cn(C)cn1 | 8 | 8
COc1cccc(C#Cc2ccc([C@@H]3[C@@H](CO)N4C(=O)CN(S(=O)(=O)c5ccccc5C)C[C@H]34)cc2)c1 | 7 | -9
COc1ccc(NC(=O)Nc2ccc3c(c2)C(=O)N([C@H](C)CO)C[C@H](C)[C@@H](CN(C)C(=O)NC(C)C)O3)cc1 | 5 | 12
O=C(Cc1cccnc1)N[C@@H]1CC[C@H](CCn2cc(Cc3ccccc3)nn2)O[C@@H]1CO | 12 | 13
C[C@H](CO)N1C[C@H](C)[C@H](CN(C)C(=O)NC2CCCCC2)OCCCC[C@H](C)Oc2ccc(NC(=O)CCC(F)(F)F)cc2C1=O | -5 | -2
Further compounds.
SMILES | Vaccinia inh | Vaccinia inh Venus
O=C(C[C@H]1CC[C@@H](NC(=O)Nc2ccccc2)[C@@H](CO)O1)NCc1ccccn1 | -1 | -4
C[C@@H]1CN([C@H](C)CO)C(=O)c2cc(NC(=O)NC3CCCCC3)ccc2O[C@@H](C)CCCCO[C@H]1CN(C)S(=O)(=O)c1ccccc1 | -2 | -8
COCC#Cc1cnc2c(c1)C(=O)N([C@@H](C)CO)C[C@@H](C)[C@@H](CN(C)Cc1ccc(F)cc1)O2 | 8 | 5
CO[C@@H]1CN(C)C(=O)c2cc(NC(=O)c3ccccc3)ccc2OC[C@H](C)N(C)C[C@H]1C | -6 | 10
C[C@@H]1CCCCO[C@H](CN(C)S(=O)(=O)c2cccs2)[C@@H](C)CN([C@@H](C)CO)C(=O)c2cc(NS(=O)(=O)c3ccc(F)cc3)ccc2O1 | -25 | -13
O=C(C[C@@H]1C[C@@H]2c3cc(NC(=O)Cc4ccncc4)ccc3O[C@@H]2[C@H](CO)O1)NCc1cccnc1 | 7 | 4
C[C@@H]1CN([C@@H](C)CO)C(=O)c2cccc(NC(=O)C3CCOCC3)c2O[C@H]1CN(C)S(=O)(=O)c1ccc(Cl)cc1 | 3 | 7
COc1ccc(S(=O)(=O)N(C)C[C@@H]2Oc3ccc(NC(=O)Cc4cn(C)c5ccccc45)cc3CC(=O)N([C@@H](C)CO)C[C@@H]2C)cc1 | -24 | -24
O=C(Nc1ccccc1F)N1CCCCN2[C@H](C1)[C@H](c1ccc(C#Cc3ccccc3)cc1)[C@@H]2CO | -15 | -15
C[C@@H]1CCCCO[C@H](CN(C)C(=O)Nc2ccc3c(c2)OCO3)[C@@H](C)CN([C@@H](C)CO)C(=O)c2cc(NS(=O)(=O)c3cn(C)cn3)ccc2O1 | 18 | 9
C[C@H](CO)N1C[C@H](C)[C@@H](CN(C)C(=O)NC2CCCCC2)Oc2ccc(NC(=O)CCN3CCOCC3)cc2C1=O | 16 | 9
C[C@@H]1CCCCO[C@H](CN(C)C(=O)Cc2ccccc2)[C@@H](C)CN([C@@H](C)CO)C(=O)c2cc(NS(=O)(=O)c3cn(C)cn3)ccc2O1 | 15 | 9
Cc1ccc(S(=O)(=O)Nc2ccc3c(c2)C(=O)N([C@@H](C)CO)C[C@H](C)[C@@H](CN(C)Cc2ccccc2)O3)cc1 | 6 | 4
C/C=C/c1ccc2c(c1)O[C@@H](CN(C)C(=O)Nc1ccc(C(F)(F)F)cc1)[C@H](C)CN([C@H](C)CO)S2(=O)=O | ? | nt
COCC(=O)N1C[C@H](C)[C@@H](OC)CN(C)C(=O)c2ccc(NC(=O)NC(C)C)cc2OC[C@@H]1C | 5 | 1
Cc1noc(C)c1S(=O)(=O)Nc1cccc2c1O[C@H](CN(C)S(=O)(=O)c1ccc(F)cc1)[C@H](C)CN([C@@H](C)CO)C2=O | 0 | 2
C[C@H](CO)N1C[C@H](C)[C@@H](CN(C)Cc2ccccc2)Oc2ccc(NC(=O)CCN3CCOCC3)cc2CC1=O | 2 | 3
COc1ccc(CNC(=O)C[C@@H]2CC[C@@H]3[C@H](COc4ccc(NC(C)=O)cc4C(=O)N3C)O2)cc1 | 4 | 10
Cc1noc(C)c1S(=O)(=O)Nc1ccc2c(c1)C(=O)N([C@@H](C)CO)C[C@H](C)[C@H](CN(C)Cc1ccc(C(F)(F)F)cc1)O2 | -7 | -5
COc1ccc(NC(=O)Nc2ccc3c(c2)C(=O)N([C@H](C)CO)C[C@@H](C)[C@@H](CN(C)C(=O)NC(C)C)OCCCC[C@H](C)O3)cc1 | 2 | -6
CC(C)NC(=O)Nc1ccc2c(c1)C(=O)N([C@@H](C)CO)C[C@@H](C)[C@H](CN(C)S(=O)(=O)c1cn(C)cn1)OCCCC[C@@H](C)O2 | 25 | 20
COc1ccccc1S(=O)(=O)N[C@H]1C=C[C@H](CC(=O)NCc2cc(F)cc(F)c2)O[C@@H]1CO | -11 | -3
C[C@@H]1CCCCO[C@@H](CN(C)CC2CC2)[C@H](C)CN([C@H](C)CO)C(=O)c2cc(NS(=O)(=O)c3ccccc3)ccc2O1 | 2 | -5

Entries listed so far that have an aryl methoxy group, in the order listed:
SMILES | Vaccinia inh | Vaccinia inh Venus
COc1cccc(NC(=O)N[C@@H]2C=C[C@@H](CC(=O)N3CCN(C)CC3)O[C@H]2CO)c1 | 19 | 12
COc1ccc(-c2ccc3c(c2)[C@@H]2[C@@H](CCN2C(=O)NC2CCCCC2)[C@H](CO)N3C)cc1 | ? | nt
COc1ccc(NC(=O)N[C@@H]2CC[C@H](CCNC(=O)CN3CCOCC3)O[C@@H]2CO)cc1 | 7 | 13
COc1ccccc1CN(C)C[C@H]1OCc2ccccc2-c2c(n(C)c3ccccc23)C(=O)N([C@@H](C)CO)C[C@@H]1C | ? | nt
COc1cccc(C#Cc2ccc([C@@H]3[C@@H](CO)N4C(=O)CN(S(=O)(=O)c5ccccc5C)C[C@H]34)cc2)c1 | 7 | -9
COc1ccc(NC(=O)Nc2ccc3c(c2)C(=O)N([C@H](C)CO)C[C@H](C)[C@@H](CN(C)C(=O)NC(C)C)O3)cc1 | 5 | 12
COc1ccc(S(=O)(=O)N(C)C[C@@H]2Oc3ccc(NC(=O)Cc4cn(C)c5ccccc45)cc3CC(=O)N([C@@H](C)CO)C[C@@H]2C)cc1 | -24 | -24
COc1ccc(CNC(=O)C[C@@H]2CC[C@@H]3[C@H](COc4ccc(NC(C)=O)cc4C(=O)N3C)O2)cc1 | 4 | 10
COc1ccc(NC(=O)Nc2ccc3c(c2)C(=O)N([C@H](C)CO)C[C@@H](C)[C@@H](CN(C)C(=O)NC(C)C)OCCCC[C@H](C)O3)cc1 | 2 | -6
COc1ccccc1S(=O)(=O)N[C@H]1C=C[C@H](CC(=O)NCc2cc(F)cc(F)c2)O[C@@H]1CO | -11 | -3
